RanGTP-Impb inh: disruptors of Ran-importin-beta complex formation – biochemical, FRET, CFP-Ran, YFP-importin-beta, homogeneous, primary screen; cell-free CFP-Ran/YFP-importin-beta FRET ratio; inhibition, % (no concentration beside the values); AID 2216; hit rate 1.1% among 300,000;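 active = most replicates above 15%; inconclusive = exactly half above 15%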;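 note: 0% = DMSO wells and 100% = Ran loaded with GDP instead of GTP; wells of about 40 µL received 100 nL stock; the first replicate is given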
B2AR ag: human beta-2 adrenergic receptor agonism by FAP; Am2.2-beta2AR cells, FAP receptor internalization, flow cytometry; reference of the scale not given here; response, % (test concentration not listed); hit rate 0.43% among 340,000; AID 504454;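 active = response above a set limit, near 3 SD of response in nonfluorescent compounds, cut at about 42% in these data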;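 note: stock transfer was 100 nL into about 11 µL; a reference agonist was the positive control; negative values mostly stem from fluorescent compounds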
Target sequence (P07550 whole entry, looked up): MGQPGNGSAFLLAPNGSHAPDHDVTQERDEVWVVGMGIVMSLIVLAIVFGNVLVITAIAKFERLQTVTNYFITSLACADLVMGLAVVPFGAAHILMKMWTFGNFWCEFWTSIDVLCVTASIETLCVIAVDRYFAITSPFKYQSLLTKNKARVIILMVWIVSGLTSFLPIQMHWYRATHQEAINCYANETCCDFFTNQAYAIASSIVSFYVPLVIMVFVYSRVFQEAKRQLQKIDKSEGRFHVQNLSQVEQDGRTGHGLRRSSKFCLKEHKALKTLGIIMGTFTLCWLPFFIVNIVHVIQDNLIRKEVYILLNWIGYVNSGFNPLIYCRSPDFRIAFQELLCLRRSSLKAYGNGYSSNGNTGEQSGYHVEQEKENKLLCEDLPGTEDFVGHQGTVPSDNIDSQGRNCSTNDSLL
UCH37 DUB inh: human UCH37 deubiquitinating enzyme inhibition. hit rate 0.33% among 330,000. inhibition, % (test concentration not listed). purified proteasome/UCH37, Ub-AMC cleavage fluorescence. Q9Y5K5;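 active = mean of two replicates above 20%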;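 note: 0% = compound-free wells with enzyme and 100% = wells lacking proteasome; stock transfer was 100 nL into about 20 µL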
Target sequence (Q9Y5K5 whole entry, looked up): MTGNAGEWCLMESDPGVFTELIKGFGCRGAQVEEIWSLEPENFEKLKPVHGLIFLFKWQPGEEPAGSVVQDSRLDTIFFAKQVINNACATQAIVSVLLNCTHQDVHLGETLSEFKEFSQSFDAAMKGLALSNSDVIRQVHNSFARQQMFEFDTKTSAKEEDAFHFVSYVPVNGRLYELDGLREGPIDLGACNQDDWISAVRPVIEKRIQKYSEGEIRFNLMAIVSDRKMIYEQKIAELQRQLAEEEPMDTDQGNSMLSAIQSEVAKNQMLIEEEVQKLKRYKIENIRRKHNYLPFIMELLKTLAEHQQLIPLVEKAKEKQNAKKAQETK
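assay system = human UCH37 enzyme supplied as purified proteasome complex | amount = proteasome at 0.15 nM in the dispensed enzyme solution | schedule = 30 min compound-proteasome preincubation then 25 min substrate reaction, room temperature | measured by = fluorescence, ex 355 nm, em 460 nm | benchmarks = no-proteasome wells (full inhibition) and compound-free wells (no inhibition)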
A1 inh: inhibitors of the anti-apoptotic protein A1, read as caspase activation | AID 2462 | caspase activation, % (concentration not given with the values) | hit rate 0.066% among 330,000 | MEF A1-2A-BIM cells, Caspase-Glo 3/7 luminescence, 3 h; percent of clofoctol response, vehicle zero;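 active = over half of replicate activation scores above 10%, or exactly half above 10 with the replicate mean above 10; inconclusive = replicate mean below 10 yet half the replicates above 10; inactive = over half of replicates below 10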;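 note: wells of about 30 µL received 50 nL stock; many hits fall short of the cut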
Calb FLC: C. albicans growth modulation with fluconazole. C. albicans CaCi-2 (fluconazole-resistant clinical isolate) + fluconazole, Alamar Blue growth, 48 h. growth inhibition, % (concentration not given with the values). hit rate 0.57% among 300,000. AID 1979;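 active = most replicates above 75%; inconclusive = exactly half above 75%; inactive = most below 75%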;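 note: all wells also contain fluconazole at 8 µg/ml as a sub-toxic cotreatment; 0% = median of DMSO wells and 100% = median of geldanamycin control wells; wells of about 8 µL received 7.5 nL stock; the first replicate is given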
LANA-H2A inh: blocks KSHV LANA binding to histone H2A/H2B. AID 2629. inhibition, % (no concentration beside the values). cell-free LANA-H2A/H2B peptide, fluorescence polarization. Q9QR71. hit rate 0.6% among 320,000; in the data active = inhibition mostly above about 10%, no sharp cut-off; inactive = mostly below about 6.7%;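 note: stock transfer was 7.5 nL into about 10 µL; 0% = median of vehicle wells and 100% = median of positive control wells; one replicate is shown; the record names a cut of 25% in any replicate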
T cruzi inh: blocks replication of Trypanosoma cruzi; inhibition, % (no concentration beside the values); hit rate 1.4% among 300,000; T. cruzi beta-gal in NIH3T3, luminescence, 90 h; AID 1885;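 active = mean inhibition across valid replicates above about 55%, limit read from the data; inconclusive = mean below that limit but half or more replicates reach it; inactive = mean below it, under half of replicates reach it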;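 note: signal also drops with host cell toxicity which is not excluded here; 0% = plate median of DMSO wells and 100% = zero luminescence signal; higher percent means less beta-gal luminescence so fewer parasites; stock transfer was 50 nL into about 50 µL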
Beta cell apopt: blocks beta cell apoptosis | INS-1E cytokine-induced death, ATP luminescence, 48 h; percent of positive-control rescue, neutral wells zero | protection from apoptosis, % (concentration not given with the values) | hit rate 0.8% among 300,000 | AID 435005;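 active = all replicates at 75% or more, or half of them and the mean; inconclusive = half reach 75% but not the mean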;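 note: 0% = cytokine-treated negative control wells and 100% = positive control rescue; higher means more ATP so stronger rescue from cytokine killing; wells of about 40 µL received 100 nL stock; the first replicate is given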
Active calls of the source: *; ? = inconclusive; nt = no result given; & = joins results of further samples; ! = a repeat was not active.

SMILES	RanGTP-Impb inh	B2AR ag	UCH37 DUB inh	A1 inh	Calb FLC	LANA-H2A inh	T cruzi inh	Beta cell apopt
Cc1cccc(-c2cc(C(=O)Nc3sc(C)c(C)c3C(N)=O)c3ccccc3n2)c1	-2.7	16	-1.8	-0.4	?	3.5	29	18
O=C(O)Cc1ccc(NC(=O)C2CCCCC2C(=O)O)cc1 (configuration not stated)	0.4	2	-2.7	0.5	-10	0.5	-3	-6
O=C1CCC(C(=O)N2CCOCC2)CN1Cc1cccc(C(F)(F)F)c1 (configuration not stated)	-0.8	2	2.2	0.9	4	-0.4	-6	-3
O=C(NCCc1nc2ccccc2[nH]1)/C(=C/c1ccc2c(c1)OCO2)NC(=O)c1ccccc1Cl	-0.2	-1	6.4	0.2	-1	-0.1	5	0
Cc1ccc(NC(=O)CSc2nnc(C(F)(F)F)n2C)cc1[N+](=O)[O-]	0.1	-11	6.3	0.0	?	nt	13	3
CC1CC(C)CN(C(=O)C2CCN(S(=O)(=O)c3cccc4cccnc34)CC2)C1 (configuration not stated)	-0.1	10	3.3	-1.4	-3	0.5	-1	-1
CCc1ccc(-c2nc(SCC(=O)NC3CCCC3)n[nH]2)cc1	-0.6	0	1.9	0.9	-4	1.4	2	0
Cc1nnc(SCC(=O)N2CCCC2)n1-c1ccc(F)cc1	0.2	-8	4.3	0.1	-7	7.1	-30	-2
Cc1ccccc1Nc1c(-c2cccnc2)nc2ccccn12	3.9	8	-9.9	0.6	-4	-1.8	-14	-21
C[C@@H]1C[C@@H]2OC(=O)[C@]3(C)[C@H]2[C@@H](OC3(C)O)[C@]2(C)C(=O)CC[C@H]12 (some centres not stated)	0.3	nt	nt	-0.5	-5	-3.9	-1	-3
FC(F)(F)c1cccc(CN2CCSCC2)c1	-3.3	1	2.5	-0.4	-4	4.4	-6	-4
CC(CCc1ccccc1)NC(=O)C(=O)Nc1ccccc1 (configuration not stated)	-3.4	2	-0.8	-3.7	2	-3.0	3	0
COc1ccc(S(=O)(=O)N2CCC(C(=O)N[C@H](C(=O)NC3CCCC3)C(C)C)CC2)cc1	-1.1	-1	1.2	0.0	1	2.2	9	0
CCCOc1ccc(C(=O)C(c2ccccc2)N2CCOCC2)cc1 (configuration not stated)	?	-3	-3.5	0.1	10	-0.7	1	-6
Cc1cc(C)nc(N2CCCC(C(=O)NC(C)C)C2)n1 (configuration not stated)	2.4	3	-7.6	-0.8	3	-0.8	-18	-4
Cc1sc2ncnc(N3CCCCC3)c2c1C	4.4	-11	4.7	0.3	6	-0.2	-22	-8
Cc1c(NS(=O)(=O)c2ccc(NC3CCCC3)c([N+](=O)[O-])c2)c(=O)n(-c2ccccc2)n1C	0.1	-12	0.9	-0.3	-1	-1.1	20	-6
Cc1ccc(S(=O)(=O)Nc2ccc3cn[nH]c3c2)cc1C	nt	nt	0.6	0.7	nt	8.3	nt	10
Cc1ccccc1CN1CCNC(=O)C1CC(=O)NCCC1=CCCCC1 (configuration not stated)	-1.2	21	2.0	0.6	3	1.5	16	-5
CC(C)CCN(C(=O)CNC(=O)c1ccco1)C(C(=O)NC1CCCCC1)c1cccnc1 (configuration not stated)	-4.6	-9	-1.6	1.1	-2	6.1	-1	-5
Cc1cc(-c2ccccc2)nc(N2CCN(c3ccccn3)CC2)n1	-5.5	3	-67	0.9	-1	-2.5	5	20
COc1ccc(Cl)cc1NC(=O)CN(C)C(=O)CSc1ccc2c(c1)OCCO2	nt	-1	1.6	0.3	nt	0.2	nt	0
C#CCOC(=O)CN1C(=O)c2cccc3cccc(c23)C1=O	2.5	13	-96	1.7	-9	-4.8	-10	-9
CCn1cc(C(=O)NC(=S)Nc2cccc(O)c2)cn1	0.4	2	5.3	-0.1	5	-0.1	-14	2
CCOC(=O)c1sc2nc3c(cc2c1N)COC(C)(C)C3	nt	11	-37	-4.9	nt	-2.6	nt	2
Cc1ccccc1N1CC(C(=O)N2CC(C)CC(C)C2)CC1=O (configuration not stated)	2.1	0	1.0	-0.1	6	-2.0	1	nt
Cc1nc2ccc(NC(=O)c3ccc([N+](=O)[O-])cc3)cc2[nH]1	1.1	-6	6.5	-1.3	0	4.7	12	1
O=C(NCCCN1CCCCC1)C1CCC(CNS(=O)(=O)c2cccc3nsnc23)CC1 (configuration not stated)	1.5	-6	6.7	nt	3	nt	-1	nt
CC(=O)[C@@H]1[C@@H](C(=O)c2ccc(F)cc2)[C@]2(C(=O)Nc3ccccc32)[C@H]2C=Cc3cc(F)ccc3N12	-3.2	10	0.0	-0.5	-3	3.9	-15	-6
CNc1nc2ccccc2n1N	2.4	1	2.1	0.4	-2	-3.7	-14	-7
CCn1c(/C=C2\C(=O)N(C(C)C)c3ccccc32)nc2ccccc2c1=O	1.5	13	2.6	0.3	11	-1.0	-6	5
COc1cc(/C=N/NC(=O)c2csc3c2CCCC3)cc(OC)c1O	-1.1	-20	nt	0.0	10	-3.9	-4	4
O=C1CCC(/C=C/c2ccccc2)=NN1Cc1ccccc1Cl	1.2	43*	7.0	-0.4	2	-1.2	9	-9
CCNC(=S)NNC(=O)c1c(Cl)c(C)nn1C	-1.3	8	2.3	0.1	-4	2.6	-1	5
CCc1ccc(C(=O)NCc2ccc(Cl)cc2)cc1	?	-2	0.3	2.2	-3	-4.8	-15	6
Cc1ccc(N(CC(=O)N2CCOCC2)S(C)(=O)=O)cc1C	1.9	-9	0.9	-0.5	-4	1.1	-5	-6
CC(C)=CCN1CCN(Cc2cccn2-c2ccccn2)CC1CCO (configuration not stated)	-0.8	1	-1.6	-0.6	-12	1.4	2	-6
COc1ccc(CNC(=O)CSc2nccn(-c3ccc(F)c(F)c3)c2=O)cc1	0.5	-2	-19	-0.4	-5	nt	-9	-9
O=C(c1cccs1)N(c1ccc(Cl)cc1)C1C=CS(=O)(=O)C1 (configuration not stated)	11	0	3.4	0.6	0	-0.7	11	-3
Cc1ccc(CNC(=O)C2c3ccccc3C(=O)N3CCc4ccccc4C23)o1 (configuration not stated)	5.1	3	0.7	-0.8	26	5.7	-4	2
O=C(COc1ncnc2ccc(Br)cc12)Nc1ccc(N2CCOCC2)cc1	-0.7	-8	2.1	-0.5	1	1.2	12	2
CCOC(=O)c1oc2c(CN3CCCCC3C)c(O)ccc2c(=O)c1-c1ccc(OC)c(OC)c1 (configuration not stated)	1.6	-5	8.1	-0.4	22	0.1	6	nt
COc1ccc(-n2c(C)ccc2C)c([N+](=O)[O-])c1	0.8	-9	0.2	0.5	-4	-2.3	0	-11
O=C(O)C(CCCCNS(=O)(=O)c1ccc(F)cc1)NS(=O)(=O)c1ccc(F)cc1 (configuration not stated)	-6.3&-1.6	-1&2	4.7&-0.5	?	9&-1	0.5&1.6	-9&-8	-4
Cc1cccc(C(=O)NCCN(C)C)c1	-0.7	0	2.7	1.1	1	-3.0	2	-1
O=C(NCc1ccc(F)cc1)C(c1ccncc1)N(C(=O)c1csnn1)C1CC1 (configuration not stated)	-2.2	9	1.9	-0.4	5	-2.7	-5	0
O=C(CCC(=O)N1CCOc2ccccc21)NCCCN1CCN(Cc2ccccc2)CC1	0.9	0	4.4	0.1	-9	1.6	3	-4
COc1ccc(NC(=O)CS(=O)(=O)c2ccc(F)cc2)cc1	-0.6	-2	-0.2	0.8	-4	2.3	-9	nt
COc1ccc(-c2nnn(CC(=O)NCCc3c[nH]c4ccccc34)n2)cc1OC	2.9	-10	4.5	0.3	0	0.3	-10	-2
O=C(NCc1ccncc1)C(=O)NCC1OCCN1S(=O)(=O)c1ccc(F)cc1 (configuration not stated)	-3.6	1	-2.4	0.9	0	7.9	5	4
NC(=O)c1ccccc1N(Cc1ccccc1)S(=O)(=O)c1ccccc1	-0.2	5	1.2	1.4	32	-0.8	0	-7
NS(=O)(=O)c1cc(C(=O)Nc2ccc3c(c2)OCCCO3)ccc1Cl	-0.9	-24	3.4	0.5	-2	1.3	7	-2
Cc1cccc[n+]1CC(=O)Nc1ccc([N+](=O)[O-])cc1Cl	-2.4	1	7.5	-1.4	-3	0.2	-4	0
COc1ccc(S(=O)(=O)n2nc(-c3ccc(Cl)cc3)cc2N)cc1OC	1.0	14	nt	0.5	1	0.9	-2	-20
Cc1cc(C)n2nc(C(=O)OCC(=O)c3ccc(F)cc3)nc2n1	4.7	2	2.4	0.4	5	-3.2	-5	-3
CN(CCOc1ccc(CC2SC(=O)NC2=O)cc1)c1ccccn1 (configuration not stated)	-1.2&2.2	2&-1	0.8&-3.5	-0.2&0.0	-4&-1	11*!	-2&-7	nt
CCc1ccc(-c2cc(C(=O)N3N=C(C(F)F)CC3(O)C(F)F)c3ccccc3n2)cc1 (configuration not stated)	-0.4	8	-11	0.7	25	-1.6	59*	14
O=C(CCCCC(=O)NNC(=O)COc1ccccc1)NNC(=O)COc1ccccc1	-0.3	2	nt	0.3	2	-2.4	-1	-1
COc1ccc(S(=O)(=O)N2CCN(c3ccc(C)cc3C)CC2)cc1OC	-1.1	4	0.2	0.6	23	-4.9	10	8
O=C(COC(=O)c1cc([N+](=O)[O-])ccc1NCCO)NCc1cccs1	-2.5	6	11	0.1	-10	-2.7	-6	0

Shown comma-delimited: part of the list above.
SMILES,RanGTP-Impb inh,B2AR ag,UCH37 DUB inh,A1 inh,Calb FLC,LANA-H2A inh,T cruzi inh,Beta cell apopt
CCOC(=O)c1oc2c(CN3CCCCC3C)c(O)ccc2c(=O)c1-c1ccc(OC)c(OC)c1 (configuration not stated),1.6,-5,8.1,-0.4,22,0.1,6,nt
O=C1CCC(C(=O)N2CCOCC2)CN1Cc1cccc(C(F)(F)F)c1 (configuration not stated),-0.8,2,2.2,0.9,4,-0.4,-6,-3

Next part
SMILES	RanGTP-Impb inh	B2AR ag	UCH37 DUB inh	A1 inh	Calb FLC	LANA-H2A inh	T cruzi inh	Beta cell apopt
COc1ccc(NC(=O)C2CCCN2c2nn3c(=O)cc(C)nc3s2)cc1 (configuration not stated)	-1.8	-7	5.1	-1.0	-2	-10	6	-3
CCCCSc1nnc2nc(C)cc(C)n12	0.5	-22	0.1	0.3	-20	1.7	0	-2
O=C(N/N=C/c1cccc([N+](=O)[O-])c1)c1ccc2c(c1)OCCO2	1.8	2	nt	-1.6	8	5.4	-1	10
COc1cc(C(=O)N=c2sccn2C)c([N+](=O)[O-])cc1OC	-2.6	1	3.6	2.4	-2	4.6	12	-2
CSc1nnc(NC(=O)c2ccco2)s1	-0.6	2	8.5	-2.4	-5	-0.1	?	4
COc1ccc(CC(=O)Oc2cc(C)[nH]c(=O)c2[N+](=O)[O-])cc1	nt	2	6.6	1.2	nt	-3.9	nt	2
COc1cc(OC)cc(C(=O)Nc2nc(CC(=O)NCCc3ccccc3)cs2)c1	1.1	-2	-0.7	1.0	5	2.8	-7	-2
COC(=O)c1sc(S(=O)(=O)Nc2ccc(C)c(C)c2)c(C(=O)OC)c1C	5.7	10	1.3	1.1	?	0.5	3	-11
CC1(OC(=O)CCc2ccccc2)C(=O)C=C2C=C(c3ccc(C#N)cc3)N(CCc3c[nH]c4ccccc34)C=C2C1=O (configuration not stated)	-0.7	-3	1.1	0.3	25	8.6	10	-6
CCOC(=O)N1CCN(C(=O)c2ccc3c(c2)NC(=O)C(N2CCOCC2)S3)CC1 (configuration not stated)	nt	4	-5.3	0.1	nt	-7.0	nt	-2
